High-throughput results as filed in PubChem.
GLA inh pH 4.5: qHTS Assay for Inhibitors of Human alpha-Galactosidase at pH 4.5; purified enzyme, 4-MU-alpha-Gal fluorescence, pH 4.5; 230,000 tested, under 10 active; activity change, negative = inhibition, % at 105 µM; inconclusive = small, poorly fitted or top-dose-only inhibition, or a rising curve; inactive = flat fitted curve, though single readings scatter; no compound was filed as active;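 further: 0% = full activity with enzyme and -100% = basal without enzyme; dose as in the result columns while the protocol names 77 µM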
Target sequence (P06280 whole entry, looked up): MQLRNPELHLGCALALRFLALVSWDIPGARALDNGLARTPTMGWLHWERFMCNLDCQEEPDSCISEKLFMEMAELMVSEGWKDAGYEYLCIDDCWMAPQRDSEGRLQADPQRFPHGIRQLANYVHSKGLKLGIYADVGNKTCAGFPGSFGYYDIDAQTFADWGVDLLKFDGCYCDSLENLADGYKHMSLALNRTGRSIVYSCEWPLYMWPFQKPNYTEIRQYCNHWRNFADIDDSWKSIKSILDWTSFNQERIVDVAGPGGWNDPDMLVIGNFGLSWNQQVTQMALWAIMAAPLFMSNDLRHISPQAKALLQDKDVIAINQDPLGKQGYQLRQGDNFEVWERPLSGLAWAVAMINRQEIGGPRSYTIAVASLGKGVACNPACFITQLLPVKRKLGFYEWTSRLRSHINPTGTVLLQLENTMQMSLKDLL
Rango release inh: qHTS Assay for Inhibitors of RanGTP induced Rango (Ran-regulated importin-beta cargo) - Importin beta complex dissociation; Biochemical FRET Rango-importin beta, RanGTP-induced dissociation; Potency, µM (highest dose often 46.1 µM), without a hit: at the top dose activity change, negative = inhibition; 0.071% of 340,000 active; active means falling FRET ratio curve, often poorly fitted, with flat reads before Ran was added; inconclusive means other falling curves, or compound fluorescence or quenching; inactive means flat or rising ratio curve;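 further: potency means the concentration at half of the fitted maximal effect; % of control where 0% means no effect; nearly all actives have a fitted effect of over 45% in size; -100% = wells without RanGTP and RCC1; the record marks most hits as doubtful in a second field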
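Rango/importin beta premix (0.1/0.25 uM final), PBS + 1 mM DTT + 0.02% Tween-20 + 0.1% BSA; cpd 5 min RT; FRET pre-read; + RanGTP-RCC1 (0.6 uM Ran, 2 mM GTP, 0.2 uM RCC1); 45 min RT; FRET post-read, ex 430, em 486/530 nm.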
Rango-impB inh: qHTS Assay for Inhibitors of Rango (Ran-regulated importin-beta cargo) - Importin beta complex formation; Importin subunit beta-1 (Homo sapiens), Q14974; Rango CFP/YFP FRET sensor + importin beta, 45 min; Potency, µM (series often up to 92.2 µM), without a hit: top-dose inhibition of complex formation; 0.031% of 340,000 active; active = rising FRET ratio curve, often small or poorly fitted; inconclusive = mostly compound fluorescence or quenching in the first reads; inactive = flat curves in all reads;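 further: potency means the concentration at half of the fitted maximal effect; 0% = DMSO wells and 100% = buffer wells lacking importin beta; nearly all actives have a fitted effect of over 15% in size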
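FRET biosensor Rango (snurportin 1 IBB between N-terminal EYFP and C-terminal Cerulean), 50 nM in PBS/1 mM DTT/0.02% Tween-20/0.1% BSA, preincubated 5 min RT with compound; 0.125 microM importin beta added, 45 min RT, CFP/YFP FRET ratio read.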
miR-21 FLuc: qHTS Assay for Modulators of miRNAs and/orActivators of miR-21; HeLa miR-21 FLuc reporter, luciferase, 48 h; Potency, µM (titrated, usually from 38.3 µM), for the others: at the top dose reporter change, positive = more light; 340,000 tested, under 10 active; active = well fitted rising curve with a large enough effect; inconclusive = small, poorly fitted or top-dose-only effect; inactive = no such curve, though single readings can be large or run the other way;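 further: % of control where 0% means no effect; miR-21 action dims this reporter so a rising signal means less miR-21 action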
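HeLa cells endogenously expressing miR-21, stably carrying CMV-driven firefly luciferase with a downstream miR-21 binding site, 2000 cells/well. Titrations up to approximately 40 uM, 48 hours; luciferase luminescence read.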
Numbers without * were called inactive; u = inconclusive; x = not tested or not shown; & = joins results of further samples. The list is partial (hit frequency here may not be typical).

SMILES	GLA inh pH 4.5	Rango release inh	Rango-impB inh	miR-21 FLuc
CC(=O)Nc1ccc(NC(=O)CSCc2ccccc2Cl)cc1	x	-19%	7.8%	x
Cc1cccc(OCCCC(=O)Nc2ccc(S(=O)(=O)Nc3nccs3)cc2)c1C	x	1%	1.5%	0%
CCC(C)(C)NC(=O)c1ccc(S(=O)(=O)N2CCCCCC2)cc1	-2	-11%	-0.6%	-8%
Cc1ccc2c(c1)C1C=CCC1C(C(=O)O)N2 (centres undefined)	-10	x	x	-4%
COc1cccc(NC(=O)CN(C)C(=O)c2c(C)nn(Cc3ccc(C)cc3)c2Cl)c1	x	19%	2.5%	x
Cn1nc(-c2ccc(Cl)cc2)c2cc(C(=O)NCCCN3CCCC3)sc21	-3	31%	-0.2%	14%
Cc1[nH]c2ccccc2c1SCc1n[nH]c(=S)n1C	2	-9%	-0.2%	1%
COc1ccccc1NS(=O)(=O)c1ccc2oc(SC(C)C(=O)N3CCNC3=O)nc2c1 (centres undefined)	x	0%	1.0%	x
Cc1ccc2c(c1)N(C(=O)CCC(=O)N1CCN(c3cccc(C)c3C)CC1)CCO2	x	14%	0.7%	25%
C[n+]1c(/C=C/c2ccc3c(c2)OCO3)ccc2ccccc21	4	38%	-0.3%	-53%

Taken from above:
`C[n+]1c(/C=C/c2ccc3c(c2)OCO3)ccc2ccccc21` – GLA inh pH 4.5: 4
`Cc1ccc2c(c1)N(C(=O)CCC(=O)N1CCN(c3cccc(C)c3C)CC1)CCO2` – miR-21 FLuc: 25%

The listing continues:
SMILES	GLA inh pH 4.5	Rango release inh	Rango-impB inh	miR-21 FLuc
CN(C)c1ccc(C(=S)N2CCCC2)cc1Br	x	23%	-3.9%	-14%
O=C1/C(=C2/NCCN2C2CC(=O)N(c3ccccc3)C2=O)CC/C1=C\c1ccccc1 (centres undefined)	0	-3%	-0.6%	1%
COc1ccc(NC(=O)COC(=O)c2cc3c(s2)CCC3)cc1	x	7%	-1.6%	x
COc1ccccc1NC(=O)NCC1(N(C)C)CCCCC1	x	-3%	-2.0%	-4%
O=C(CN1CCOCC1)N1CCCc2ccccc21	8	2%	6.0%	1%
CC(Cl)C(=O)Nc1c2c(nn1-c1ccccc1)CSC2 (centres undefined)	x	1%	0.4%	4%
Cc1csc(=O)n1CCC(=O)OCC(=O)Nc1ncc(Cl)cc1Cl	x	-5%	-3.1%	x
Cc1ccc(S(=O)(=O)N2CCN(CC(O)c3ccccc3)CC2)cc1 (centres undefined)	-5	13%	-3.1%	-5%
O=C(CN1C(=O)c2ccccc2C1=O)Nc1ccccc1C(=O)NC1CCCCC1	0	1%	u	-2%
Cc1oc2ccc(OCc3ccccc3Cl)cc2c1C(=O)O	x	-12%	2.4%	-4%
O=C(NCCC1=CCCCC1)c1ccc(CN2CCOCC2)cc1	2	4%	-0.8%	-23%
O=C(CN(C(=O)c1csnn1)c1ccc(F)c(Cl)c1)NC1CCCCC1	x	-4%	-0.5%	0%
c1cncc(-c2nc(Oc3ccc(-c4nnco4)cc3)c3c4c(sc3n2)CCCC4)c1	7	x	x	-5%
Cc1ccn(CCC(=O)NC2CC(C)(C)Cc3c2cnn3-c2ccccc2C)n1 (centres undefined)	x	-12%	-1.8%	-4%
C=C(C)CC1(NC(C)c2ccccc2)CCCCC1 (centres undefined)	-6	6%	-3.7%	-1%
Cc1ccc(C)c(C(=O)CC2(O)C(=O)Nc3ccccc32)c1 (centres undefined)	4	-6%	0.0%	-6%
O=C(NCCS(=O)(=O)NCc1ccc(Cl)cc1)c1ccccc1	x	15%	-5.6%	x
CS(=O)(=O)N(CC(=O)N1CCCC1)c1ccc(OCc2ccccc2)cc1	-9	67%	0.3%	17%
COc1ccc(NS(=O)(=O)c2cccc(C(=O)N3CCCC(C)C3)c2)cc1 (centres undefined)	x	3%	-0.9%	x
CCn1c(N2CCN(S(=O)(=O)c3ccc(F)cc3)CC2)nc2ccccc21	-1	20%	4.0%	20%

Next section, overlapping the part above by 7 compounds.
SMILES	GLA inh pH 4.5	Rango release inh	Rango-impB inh	miR-21 FLuc
Cc1ccn(CCC(=O)NC2CC(C)(C)Cc3c2cnn3-c2ccccc2C)n1 (centres undefined)	x	-12%	-1.8%	-4%
C=C(C)CC1(NC(C)c2ccccc2)CCCCC1 (centres undefined)	-6	6%	-3.7%	-1%
Cc1ccc(C)c(C(=O)CC2(O)C(=O)Nc3ccccc32)c1 (centres undefined)	4	-6%	0.0%	-6%
O=C(NCCS(=O)(=O)NCc1ccc(Cl)cc1)c1ccccc1	x	15%	-5.6%	x
CS(=O)(=O)N(CC(=O)N1CCCC1)c1ccc(OCc2ccccc2)cc1	-9	67%	0.3%	17%
COc1ccc(NS(=O)(=O)c2cccc(C(=O)N3CCCC(C)C3)c2)cc1 (centres undefined)	x	3%	-0.9%	x
CCn1c(N2CCN(S(=O)(=O)c3ccc(F)cc3)CC2)nc2ccccc21	-1	20%	4.0%	20%
COC(=O)C1=C(C)NC(=O)/C1=C\c1cc(C)n(-c2ccccc2F)c1C	8	8%	u	3%
Cc1cc(=O)oc2cc(OC(C)C(=O)Nc3ccc(C(N)=O)cc3)ccc12 (centres undefined)	x	-1%	-3.1%	x
Cc1ccc(C(=O)N2CCCC2)cc1S(=O)(=O)Nc1cccc(C)c1C	-19	1%	-1.2%	-2%
Cc1nnc(SCC(=O)Nc2ccc3c(c2)OCCO3)n1N	7	1%	1.1%	-11%
CCSc1nnc(NC(=O)c2c(-c3ccccc3Cl)noc2C)s1	11	2%	-2.5%	3%
CC(=O)c1cc2c(cc1NC(=O)CN1CCCCCCC1)OCO2	-11	-9%	2.1%	-2%
O=C(OCCN1CCOCC1)c1ccc(Cl)cc1Cl	x	8%	0.2%	-3%
COC(=O)c1cc(S(=O)(=O)N2CCN(c3ccccc3OC)CC2)cn1C	x	3%	2.1%	0%
CCCN(CC)c1ncnc2[nH]ncc12	x	-11%	0.2%	x
COC(=O)C1=C(C(=O)OC)[C@@H]2N(Cc3ccccc3)c3ccccc3[C@@]23C[C@@H](C(=O)OC)N=C3N1	5&-4	-5%	0.5%	0%
C=CCN(C)NC(=S)Nc1ccccc1	-8	-17%	u	-5%
Cc1cc(S(=O)(=O)Nc2cccc(O)c2)c(C)s1	-3	13%	-0.5%	-2%
C=C(C)COc1ccc(-c2ncnc(C(F)(F)F)c2-c2ccccc2)c(O)c1	x	-9%	-3.9%	4%
Cc1nc2ccccn2c1C(=O)N/N=C/c1ccc(F)cc1	x	2%	5.2%	-7%
CCOC(=O)CC1ON(C)C(=O)N1c1ccc(Cl)cc1Cl (centres undefined)	-22	-7%	1.3%	-11%
COc1ccc(F)cc1C(=O)C1CCCN(Cc2c[nH]c3ccccc23)C1 (centres undefined)	3	12%	0.5%	11%
CCOc1ccc(NS(=O)(=O)c2ccc(C(=O)N3CC(C)OC(C)C3)cc2)cc1 (centres undefined)	x	-8%	-0.3%	x
COc1ccc(F)cc1C(=O)C1CCCN(C(=O)CCN2CCCCO2)C1 (centres undefined)	8	-2%	1.4%	-4%
CC(=O)N1N=C(c2ccc([N+](=O)[O-])cc2)CC1c1ccccc1Cl (centres undefined)	x	-1%	3.6%	14%
CCN(CC(=O)Nc1ccccc1C(F)(F)F)C(=O)C1CCC1	x	-11%	-2.9%	x

Entries of single compounds from above:
COc1ccc(F)cc1C(=O)C1CCCN(Cc2c[nH]c3ccccc23)C1 (centres undefined) is listed with GLA inh pH 4.5: 3; Rango release inh: 12%; Rango-impB inh: 0.5%; miR-21 FLuc: 11%
CCOc1ccc(NS(=O)(=O)c2ccc(C(=O)N3CC(C)OC(C)C3)cc2)cc1 (centres undefined) is listed with GLA inh pH 4.5: x; Rango release inh: -8%; Rango-impB inh: -0.3%; miR-21 FLuc: x

New compounds follow
SMILES	GLA inh pH 4.5	Rango release inh	Rango-impB inh	miR-21 FLuc
O=S(=O)(NCC(c1ccco1)N1CCN(c2ccc(F)cc2)CC1)c1ccc2c(c1)OCCO2 (centres undefined)	-13	-11%	-2.8%	20%
CC(=O)c1ccc(N2CCN(C(=O)c3ccc(Cn4c(=S)[nH]c5ccc(N6CCOCC6)cc5c4=O)cc3)CC2)cc1	-10	u	u	-25%
O=C(NCCC(c1ccccc1)c1ccco1)c1cccs1 (centres undefined)	-1	1%	4.5%	-45%
O=C(Nc1nnc(SCc2ccc(Cl)cc2)s1)c1cnccn1	7	-12%	0.3%	-3%
CN1CCCN(C(=O)CSc2ccccc2)CC1	x	1%	-0.2%	-3%
CCCCOC(=O)/C(=C\c1ccc([N+](=O)[O-])o1)NC(=O)c1ccccc1	-2	-1%	u	1%
NC(=O)NNC(=S)Nc1cccc2ccccc12	4	-4%	-0.3%	1%
Cc1nc2ccccc2nc1OCC(=O)Nc1ccccc1	0	10%	-1.7%	-2%
CCOC(=O)C1(Cc2ccccc2)CCCN(S(=O)(=O)N(C)C)C1 (centres undefined)	x	2%	0.6%	2%
COc1cc(OC)cc(-c2nnc(SCC(=O)N3CCOCC3)o2)c1	-1	-11%	-2.3%	-7%
c1ccc2c3n(nc2c1)CCCO3	x	1%	-0.6%	x
CC1CCC(NC(=O)c2ccc(N3CCCC3=O)cc2)CC1 (centres undefined)	-26	20%	-1.3%	-46%
CCC(=O)N1CCNC(=O)C1CC(=O)Nc1ccc(C)c(Cl)c1 (centres undefined)	5	13%	-2.7%	0%
COC(=O)Cn1cnc2c(cnn2-c2ccc(C)cc2)c1=O	x	9%	-0.1%	1%
COc1ccccc1NC(=O)CSCc1cc(=O)n2c(C)csc2n1	x	7%	0.4%	-3%
Cc1cc(C)c(C#N)c(SCC(=O)NC2CC2)n1	2	15%	2.4%	2%
O=C(OCc1cc(=O)n2c(n1)sc1ccccc12)c1ccc(O)cc1O	1	3%	-4.5%	-14%
COc1ccc(NC(=O)CN(C)C(=O)CNC(=O)c2sc3ccccc3c2Cl)cc1	x	-9%	-1.7%	x
O=[N+]([O-])c1cc(O)c2ncccc2c1	0	12%	3.5%	u
Cc1cccc(-n2ccnc2SCC(=O)N2CCCc3ccccc32)c1C	-11	14%	0.4%	-2%
Cc1ccc(C(=O)NC(Cc2cccc(F)c2)C(=O)O)cc1 (centres undefined)	x	2%	4.6%	x
NC(=O)CSc1nnc(NC(=O)c2cccc(S(=O)(=O)N3CCCCC3)c2)s1	-23	-3%	-3.2%	-7%
Cc1[nH]c2ccc(C(=O)Nc3ccncc3)cc2c1C	x	8%	-2.9%	-4%
Cn1ncc(Cl)c1C(=O)N1CCN(c2ccc(F)cc2)CC1	x	0%	0.0%	12%
COc1ccc(CCNC(=O)C2CCN(C(=O)c3ccc(Br)cc3)CC2)cc1OC	x	3%	-2.4%	3%
